# GLA inh pH 4.5 – inhibitors of human alpha-galactosidase A at pH 4.5; P06280; purified enzyme, 4-MU-alpha-Gal fluorescence, pH 4.5; activity change, negative = inhibition, % at 105 µM; 230,000 tested, under 10 active; inconclusive = small, poorly fitted or top-dose-only inhibition, or a rising curve; inactive = flat fitted curve, though single readings scatter; no compound was filed as active;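 further: 0% = full activity with enzyme and -100% = basal without enzyme; dose as in the result columns while the protocol names 77 µM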
# miR-21 reporter – miR-21 reporter, rising signal. 340,000 tested, under 10 active. AID 2288. Potency, µM (top dose mostly 38.3 µM), for inactives: at the highest dose reporter change, positive = more light. HeLa miR-21 FLuc reporter, luciferase, 48 h; active = well fitted rising curve with a large enough effect; inconclusive = small, poorly fitted or top-dose-only effect; inactive = no such curve, though single readings can be large or run the other way;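 further: % of control where 0% means no effect; miR-21 action dims this reporter so a rising signal means less miR-21 action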
#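 HeLa miR-21-FLuc reporter line, endogenous miR-21; 2000 cells/well in DMEM/10% FBS; compound titration up to ~40uM final, 48 h, 37 degree Celsius; luciferase detection reagent, 15 min lysis, CCD luminescence.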
# Rango-impB inh – Rango-importin beta binding inhibition | Q14974 | Potency, µM (top dose mostly 92.2 µM), for the others: at the top dose inhibition of complex formation | Rango CFP/YFP FRET sensor + importin beta, 45 min | actives 0.031% (n = 340,000); active = rising FRET ratio curve, often small or poorly fitted; inconclusive = mostly compound fluorescence or quenching in the first reads; inactive = flat curves in all reads;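 further: potency means the concentration at half of the fitted maximal effect; 0% = DMSO wells and 100% = buffer wells lacking importin beta; nearly all actives have a fitted effect of over 15% in size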
# Target sequence (Q14974 whole entry, looked up): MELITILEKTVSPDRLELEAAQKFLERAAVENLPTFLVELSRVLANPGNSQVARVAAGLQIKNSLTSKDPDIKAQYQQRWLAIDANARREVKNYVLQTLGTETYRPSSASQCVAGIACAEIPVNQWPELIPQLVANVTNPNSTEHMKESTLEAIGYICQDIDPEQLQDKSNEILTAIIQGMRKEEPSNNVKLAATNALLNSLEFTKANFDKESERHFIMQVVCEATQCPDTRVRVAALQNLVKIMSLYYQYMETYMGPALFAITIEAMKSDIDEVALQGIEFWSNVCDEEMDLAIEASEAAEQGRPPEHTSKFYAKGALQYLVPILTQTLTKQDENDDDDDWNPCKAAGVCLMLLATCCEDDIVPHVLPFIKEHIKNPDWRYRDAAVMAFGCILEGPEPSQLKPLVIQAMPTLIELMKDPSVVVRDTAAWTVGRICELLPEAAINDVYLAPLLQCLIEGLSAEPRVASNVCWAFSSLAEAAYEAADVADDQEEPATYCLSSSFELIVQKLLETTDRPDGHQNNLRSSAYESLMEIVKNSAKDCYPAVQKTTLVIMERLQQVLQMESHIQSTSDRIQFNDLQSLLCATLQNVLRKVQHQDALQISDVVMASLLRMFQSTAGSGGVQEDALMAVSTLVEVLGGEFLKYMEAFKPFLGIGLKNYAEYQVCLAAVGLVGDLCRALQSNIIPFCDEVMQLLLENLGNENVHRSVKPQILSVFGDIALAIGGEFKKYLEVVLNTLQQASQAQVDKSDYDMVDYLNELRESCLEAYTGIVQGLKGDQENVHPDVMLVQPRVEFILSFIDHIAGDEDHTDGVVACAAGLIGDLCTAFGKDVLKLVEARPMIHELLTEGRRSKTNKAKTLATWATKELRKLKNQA
#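 FRET biosensor Rango (snurportin 1 IBB between N-terminal EYFP and C-terminal Cerulean), 50 nM in PBS/1 mM DTT/0.02% Tween-20/0.1% BSA, preincubated 5 min RT with compound; 0.125 microM importin beta added, 45 min RT, CFP/YFP FRET ratio read.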
# Rango dissoc inh – inhibitors of RanGTP-induced Rango-importin beta complex dissociation; Biochemical FRET Rango-importin beta, RanGTP-induced dissociation; Potency, µM (series often up to 46.1 µM), inactives show top-dose activity change, negative = inhibition; actives 0.071% (n = 340,000); active means falling FRET ratio curve, often poorly fitted, with flat reads before Ran was added; inconclusive means other falling curves, or compound fluorescence or quenching; inactive means flat or rising ratio curve;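 further: potency means the concentration at half of the fitted maximal effect; % of control where 0% means no effect; nearly all actives have a fitted effect of over 45% in size; -100% = wells without RanGTP and RCC1; the record marks most hits as doubtful in a second field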
#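 Rango/importin beta premix (0.1/0.25 uM final), PBS + 1 mM DTT + 0.02% Tween-20 + 0.1% BSA; cpd 5 min RT; FRET pre-read; + RanGTP-RCC1 (0.6 uM Ran, 2 mM GTP, 0.2 uM RCC1); 45 min RT; FRET post-read, ex 430, em 486/530 nm.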
# Starred values were filed as active, the others as inactive; ? = inconclusive; nt = no result given; & = joins results of further samples.
# Start of the listing, in advance, 2 compounds:
SMILES,GLA inh pH 4.5,miR-21 reporter,Rango-impB inh,Rango dissoc inh
COc1cc(NC(=O)CN2C(=O)NC(C)(CC(C)C)C2=O)cc(OC)c1 (stereo not drawn),-5,-1%,-0.3%,-4%
COc1cccc(-c2cc(C(F)(F)F)nc(N3CCN(c4ccccc4)CC3)n2)c1,-4,-1%,-0.4%,-2%

# This part in full, repeating the preview:
SMILES,GLA inh pH 4.5,miR-21 reporter,Rango-impB inh,Rango dissoc inh
COc1cc(NC(=O)CN2C(=O)NC(C)(CC(C)C)C2=O)cc(OC)c1 (stereo not drawn),-5,-1%,-0.3%,-4%
COc1cccc(-c2cc(C(F)(F)F)nc(N3CCN(c4ccccc4)CC3)n2)c1,-4,-1%,-0.4%,-2%
Cc1cccc(OCCNC(=O)CCNS(=O)(=O)c2ccc3ccccc3c2)c1,nt,nt,0.0%,6%
O=C(NNC(=O)C1CC1)c1ccc(F)cc1F,nt,nt,-2.8%,11%
Cc1cccc(N(NC(=O)C(C)(C)O)C(=O)c2ccccc2)c1,-12,-4%,?,4%
O=C(CCN1C(=O)c2ccccc2C1=O)Nc1cc(F)ccc1F,8,-2%,0.6%,2%
O=C1Nc2ccccc2C12Nc1ccccc1S2 (stereo not drawn),-7,-41%,nt,nt
Cc1c(NC(=O)c2noc3c2CCc2ccccc2-3)c(=O)n(-c2ccccc2)n1C,nt,nt,2.4%,-14%
O=C(CSc1nnc(-c2ccco2)n1CC1CCCO1)N1CCCCC1 (stereo not drawn),-5,-6%,3.4%,2%
Cc1cc(NC(=O)COC(=O)C(C)Oc2ccc(Cl)cc2Cl)no1 (stereo not drawn),nt,9%,3.8%,3%
COc1ccc(C(CC(=O)c2ccc(C)cc2)Nc2ccc([N+](=O)[O-])cc2)cc1 (stereo not drawn),-13,-15%,4.7%,0%
CCn1c(=O)c2sccc2n2c(CCCC(=O)N3CCN(c4ccccn4)CC3)nnc12,nt,1%,5.9%,30%
O=C(Nc1ccc(C(=O)N2CCCC2)cc1)C1CC1,nt,nt,-1.8%,-14%
CCN(C[C@H]1N[C@@](CC)(C(=O)OC)[C@H]2C(=O)N(C)C(=O)[C@@H]12)S(=O)(=O)c1ccc(F)cc1,nt,nt,0.9%,-9%
CCCOc1cccc(NC(=O)c2cc(C)oc2C)c1,0,-12%,1.1%,?
O=S(=O)(N1CCCCC1)N1CCN(c2ccc(F)cc2)CC1,-2,0%,0.9%,19%
Cc1ccc2cc(CCNC(=O)c3cccc([N+](=O)[O-])c3)c(=O)[nH]c2c1,1,1%,-1.2%,-3%
CC(=O)Oc1ccc(N2C(=O)C3C(C2=O)C2C=CC3C23CC3)cc1[N+](=O)[O-] (stereo not drawn),3,-10%,4.7%,-21%
O=C(COC(=O)c1ccc(S(=O)(=O)N2CCCC2)cc1)Nc1cccc(Br)c1,nt,nt,1.3%,-16%
NS(=O)(=O)c1ccc(CCNC(=O)c2cc(-c3ccccc3)nc3ccccc23)cc1,-14,0%,-2.7%,-1%
CCC1(c2ccccc2)NC(=O)N(CC(=O)NCCN2C(=O)S/C(=C\c3cccnc3)C2=O)C1=O (stereo not drawn),nt,nt,-3.0%,9%
CCc1cccc(C)c1N1C(=O)CC(C)(C)CC1=O,5,7%,-0.7%,-4%
COc1ccc(-n2ncc3c2CC(C)(C)CC3NC(=O)CCn2nc(C)cc2C)cc1 (stereo not drawn),nt,-1%,-1.6%,-1%
COCCCn1c(=O)c2ccccc2n(CC(=O)NCCC2=CCCCC2)c1=O,nt,0%,-0.7%,-4%
COc1ccc(OCCSc2nnc(Cc3cccc4ccccc34)n2N)cc1,5,-1%,-0.1%,4%
# The listing continues.
SMILES,GLA inh pH 4.5,miR-21 reporter,Rango-impB inh,Rango dissoc inh
O=C(Cc1ccc(S(=O)(=O)N2CCOCC2)s1)NCCC(c1ccccc1)c1ccccc1,?,8%,0.4%,1%
O=C(O)c1ccc(/C=N/NC(=O)c2ccc3c(c2)OCCO3)cc1,nt,-13%,-0.4%,0%
CC(=O)c1ccc(N2CCN(C(=O)c3cc4c(-c5ccccc5F)nn(C)c4s3)CC2)cc1,-25,16%,6.2%,38%
CCCS(=O)(=O)N1CCN(CCCc2ccccc2)CC1,-2,-4%,-1.2%,3%
CN(C(=O)COc1ccccc1C(=O)NCCOc1ccccc1)c1ccccc1,-7,?,-2.4%,-17%
Cc1onc(-c2c(Cl)cccc2Cl)c1C(=O)ONC(=O)c1ccccc1,-1,0%,?,-15%
Cc1ccc(NC(=O)CCc2nc3sc4c(c3c(=O)[nH]2)CCCC4)nc1,nt,nt,?,?
COc1ccc(CNC(=O)c2ccc(Cl)c(S(=O)(=O)N3CCOCC3)c2)cc1OC,nt,nt,-11%,1%
CCOP(=O)(/C(C#N)=C(/O)c1ccccc1)c1ccccc1 (stereo not drawn),-2,13%,-0.1%,21%
COc1cccc2c1Oc1ncccc1N(C(=O)CCC(=O)NCc1cccc(C)c1)C2,nt,-5%,?,-10%
Cc1ccc(NC(=O)CN2CCOCC2)cc1C,nt,-13%,-3.1%,23%
CN1CCc2c(OCc3ccc(F)cc3)cccc2C1=O,-10,5%,-0.1%,-6%
CSc1nc2c(c(=O)[nH]1)C(c1cccc(Cl)c1)CC(=O)N2 (stereo not drawn),-1,-1%,?,-9%
Cc1cccc2c(N=O)c(O)[nH]c12,5,-21%,2.1%,-21%
Cc1ccc(NC(=O)c2cc(S(=O)(=O)N3CCCCC3)c[nH]2)cc1C,nt,1%,1.6%,-5%
CN(C)c1ccc(/C=C(/NC(=O)c2ccccc2Cl)C(=O)NCCN2CCOCC2)cc1,nt,0%,-7.5%,26%
O=C(c1ccc2c(c1)OCO2)N1CCCC(c2ccccc2)C1 (stereo not drawn),-3,-14%,0.3%,12%
Cc1ccc(N(C(=O)C2CCC(=O)N2)C2(C(=O)NC3CCCC3)CCCCC2)cc1 (stereo not drawn),3,-1%,0.1%,5%
CCOC(=O)[C@H](CCc1ccccc1)N[C@H]1CCc2ccccc2N(CC(=O)O)C1=O,nt,nt,0.0%,21%
O=C(c1ccco1)N1CCN(Cc2nc3ccc([N+](=O)[O-])cc3c(=O)n2-c2ccccc2F)CC1,3,0%,-2.0%,1%
CCOc1cc(C(c2c(C)[nH][nH]c2=O)c2c(C)[nH][nH]c2=O)ccc1O,-5,2%,1.1%,7%
FC(F)(F)c1cc(CCN2C(=S)NC[C@@H]2Cc2ccccc2)cc(C(F)(F)F)c1,-28,7%,-0.4%,-5%
CC(C)NC(=S)N=Nc1c(O)[nH]c2ccc([N+](=O)[O-])cc12,-2,20%,4.6%,34%
O=C1CSC(c2ccccn2)N1c1ccc2ccccc2c1 (stereo not drawn),5,-7%,4.0%,4%
O=C(CN1CCOCC1)Nc1ccc(N2CCN(c3ccccc3)CC2)c(F)c1,-11,1%,-1.0%,-1%

# Reprinted at random: 2 entries already listed, in no set order.
SMILES,GLA inh pH 4.5,miR-21 reporter,Rango-impB inh,Rango dissoc inh
O=C1Nc2ccccc2C12Nc1ccccc1S2 (stereo not drawn),-7,-41%,nt,nt
CCOP(=O)(/C(C#N)=C(/O)c1ccccc1)c1ccccc1 (stereo not drawn),-2,13%,-0.1%,21%

# (further entries)
SMILES,GLA inh pH 4.5,miR-21 reporter,Rango-impB inh,Rango dissoc inh
CN(Cc1ccccc1)c1nc(-c2ccc([N+](=O)[O-])cc2)nc2ccccc12,-26,-5%,2.1%,-19%
CCC(C)NC(=O)c1ccc2c(SCC(=O)O)c3c(nc2c1)CCCC3 (stereo not drawn),-12,1%,0.2%,0%
Cc1cc(C)c(OCCCn2ccnc2)c(C)c1,nt,0%,8.6%,1%
COc1ccc(/C=C/C(=O)Nc2nonc2NC(C)=O)cc1,2,-28%,1.7%,-14%
OC(COc1ccc2c(c1)OCO2)CN1CCCCC1 (stereo not drawn),1,-1%,2.7%,-18%
C=CCc1ccc(OCCN2CCc3ccccc3C2)c(OC)c1,-8,-18%,-2.4%,-16%
Cc1cc2ccccc2cc1CN1CCOCC1,-10,-7%,0.8%,2%
O=C1CCCN1CC(O)CS(=O)(=O)c1ccccc1 (stereo not drawn),3,1%,-3.7%,-4%
COc1cc2c3c(c1)C(C)=CC(C)(C)N3C(=O)C2=O,2,25%,-6.2%,4%
O=C(NC1CCCCNC1=O)c1ccccc1 (stereo not drawn),0,-1%,-3.4%,-3%
CCCCC1=CC2=CC(=O)C(C)(OC(=O)CC)C(=O)C2=CN1Cc1ccc(OC)cc1 (stereo not drawn),4&-17,-12%,?,8.2µM*
COc1cc(/C=N/NC(=O)c2sc3nc(C)cc(C)c3c2N)ccc1O,-8,-26%,?,?
N=C1/C(=C\c2ccc(-c3cc(Cl)cc(Cl)c3)o2)C(=O)N=C2SC=C(c3ccccc3)N12,-9,-5%,-0.8%,5%
C[N+]1(CC(=O)Nc2ccc(F)cc2)CCN(C(=O)c2ccco2)CC1,11,5%,-2.6%,5%
O=C(CCC(=O)Nc1ccccc1)NNS(=O)(=O)c1ccc(Cl)cc1,nt,0%,0.3%,-11%
COc1cc(C(=O)NCC2CCCCC2)ccc1OCc1c(C)noc1C,nt,nt,-0.4%,23%
CCC(NS(=O)(=O)c1ccc(C)cc1)C(=O)N1CCC2(O)CCCCC2C1 (stereo not drawn),2,-2%,1.1%,-2%
N#Cc1c(NC(=O)CSc2nc(-c3ccccc3)cc(C(F)(F)F)n2)sc2c1CCC2,-4,-5%,0.9%,0%
CCCCC(CC)C(=O)Oc1ccc(O)c(C(C)(C)C)c1 (stereo not drawn),-3,10%,?,-12%
O=C(Nc1ccc(SC(F)F)cc1)C1CC(=O)N(Cc2ccccc2)C1 (stereo not drawn),nt,-10%,-1.0%,-13%
Fc1ccc2[nH]c3c(c2c1)CN(C(=S)NCc1ccccc1)CC3,-9,7%,?,-17%
O=C(Nc1ccccc1OC(F)F)c1oc2ccccc2c1COc1ccccc1,4,-7%,1.2%,15%
CC(C)C(O)(C#CCN1CCCC1)c1ccccc1 (stereo not drawn),-5,-7%,-0.1%,5%
Oc1c(CN2CCCC2)cc(COCc2ccccc2)c2cccnc12,nt,nt,0.3%,10%
CC(C)CCNC(=O)/C=C/c1ccc(Br)cc1,16,-45%,0.0%,-1%

# Printed as active in Rango dissoc inh (from the list above):
SMILES,GLA inh pH 4.5,miR-21 reporter,Rango-impB inh,Rango dissoc inh
CCCCC1=CC2=CC(=O)C(C)(OC(=O)CC)C(=O)C2=CN1Cc1ccc(OC)cc1 (stereo not drawn),4&-17,-12%,?,8.2µM*

# Further compounds follow.
SMILES,GLA inh pH 4.5,miR-21 reporter,Rango-impB inh,Rango dissoc inh
COc1cccc(-n2c(SCC(=O)Nc3cc(C)on3)nc3c([nH]c4ccccc43)c2=O)c1,7,-11%,0.9%,4%
COC(=O)c1ccccc1NC(=O)CSc1nc(O)c(-c2ccccc2)c(=O)[nH]1,6,-1%,-0.7%,1%
Cc1sc2cc3c(c(C(=O)c4ccccc4)[n+]2c1C)-c1cccc2cccc-3c12,-3,?,?,?
O=C(Nc1ccc2[nH]c(=O)[nH]c2c1)c1ccc(Cl)c(Cl)c1,0,-3%,-3.6%,-15%
CC(C)NC(=O)NC(=O)COC(=O)c1ccc(S(=O)(=O)NCc2ccco2)cc1,nt,nt,1.9%,-16%
COc1ccccc1NS(=O)(=O)c1ccc(C(=O)NCC(c2cccs2)N2CCOCC2)cc1 (stereo not drawn),nt,nt,1.0%,-18%
Cc1ccc(C(=O)N/N=C\c2sccc2C)cn1,-4,-41%,-0.8%,22%
CS(=O)(=O)C1=NSC2=NC(=O)/C(=C\c3ccc(OC(=O)c4ccco4)c(Br)c3)C(=N)N21,nt,-1%,?,?
CC(=O)NCC(=O)OCC(=O)Nc1ccc(C(C)=O)cc1,0,-5%,-0.5%,-13%
Cc1cc(C(=O)OCC(=O)c2cccc([N+](=O)[O-])c2)c2cccc(C)c2n1,5,-2%,0.9%,26%
CC1=C(c2ccccc2)CCC1=O,nt,nt,3.4%,9%
O=C(Nc1ccc(N2CCOCC2)c(Cl)c1)c1ccc([N+](=O)[O-])o1,-7,-25%,?,6%
CC12CC3(C)CC(C)(C1)CC(C(=O)NC(=S)NC(C)(C)C)(C2)C3,-4,-1%,0.1%,9%

# High-throughput results as filed in PubChem BioAssay.

# The list is partial; the hit share may differ from the screen's.
